# High-throughput results from PubChem BioAssay.
# Vaccinia Venus – inhibitors of vaccinia virus (Venus reporter) | Vaccinia virus Venus reporter expression, fluorescence | Potency, µM (top dose mostly 36.5 µM), for the others: at the top dose activity change, negative = inhibition, hits mostly inhibitors | 330,000 tested, 0.46% active; active means well fitted inhibition curve with a large enough effect; inconclusive means small, poorly fitted or top-dose-only effect; inactive means no such curve, though single readings can be large or run the other way; tested in A549 cells; also: nearly all actives have a fitted effect of over 30% in size; inactives centre near -10
# Vaccinia mCherry – vaccinia inhibition (mCherry reporter) | 310,000 tested, 0.63% active | Vaccinia virus mCherry reporter infection, fluorescence; about a quarter of the inactives have no number | Potency, µM (top dose mostly 36.5 µM), for the others: top-dose activity change, negative = inhibition, actives largely listed as inhibitors | AID 720579; active = well fitted inhibition curve with a large enough effect; inconclusive = small, poorly fitted or top-dose-only effect; inactive = no such curve, though single readings can be large or run the other way; tested in A549 cells; also: nearly all actives have a fitted effect of over 35% in size; inactives centre near -10
# The depositor's hits bear a star; i = inactive; ? = inconclusive; nt = no result given; [ ] = another dose, or the depositor's remark. % is scaled to controls: 0 for no effect and ±100 for the full control effect; potency is read from the fitted curve at half-maximal effect.
SMILES | Vaccinia Venus | Vaccinia mCherry
COc1ccc(CCNC(=O)c2cc3c(s2)-c2ccccc2OC3)cc1OC | -19% | -22%
COCCCNC(=O)[C@H](CSCc1ccccc1)N1Cc2ccccc2C1=O | -4% | -2%
O=C(Cc1ccccc1F)Nc1cc(S(=O)(=O)N2CCCCC2)ccc1N1CCOCC1 | -14% | -5%
Clc1ncn(C23CC4CC(CC(C4)C2)C3)n1 | 3% | nt
COc1ccc(OC)c(C2C(C(=O)c3cccs3)=C(O)C(=O)N2c2cc(C)on2)c1 (stereo unspecified) | -7% | -12%
O=C(Nc1ccccc1Cl)c1ccc(COc2ccc3c(c2)CCC3)cc1 | -15% | -10%
O=Cc1s/c(=N\S(=O)(=O)c2ccccc2)n(CCCCl)c1Cl | ? | ?
O=CC(=Cc1ccccc1)c1ccccc1 | -13% | i
O=C(CSc1nnc2scc(-c3ccc(Cl)cc3)n12)Nc1ccc(F)cc1 | 4% | -9%
COCCNCc1cc(C)n(-c2cc(S(=O)(=O)N3CCOCC3)ccc2N2CCCC2)c1C | -4% | -15%
CC(C)C(=O)Nc1nc2cc3c(cc2s1)OCCO3 | -16% | i
Cc1c(C(=O)NCCN(C)C)oc2c1-c1nn(Cc3ccccc3Cl)cc1CC2 | -3% | -19%
COc1cccc(CNC(=O)N[C@@H](CC(C)C)C(=O)O)c1 | 13% | nt
Cc1ccc(CNC(=O)CC2(CC3=NS(=O)(=O)c4ccccc4N3)CCCC2)cc1 | -15% | i
O=C(Nc1cccc(C(F)(F)F)c1)c1csc(COCCO)n1 | -12% | 14%
CCOC(=O)Cn1nc(NC(=O)COc2ccc(F)cc2)cc1C | -8% | i
Cc1cc(C)n2nc(C(=O)OCC(=O)N(C)CC(=O)Nc3ccccc3Cl)nc2n1 | -1% | -12%
O=C(O)C(Cc1cnc[nH]1)NS(=O)(=O)c1ccc(Br)cc1 (stereo unspecified) | -14% | -9%
CCn1nc(C)cc1C(=O)OCC(=O)c1ccc(Cl)cc1 | -1% | -7%
OC(CNCc1ccccc1F)COc1cccc2ccccc12 (stereo unspecified) | -9% | ?
N=c1c2c3c(sc2ncn1N)CCCC3 | -8% | ?
O=C(Nc1c(C(=O)Nc2cccc(F)c2)oc2ccccc12)c1cc2ccccc2o1 | -14% | -13%
Cc1cc(=O)oc(C)c1C(=O)N1CCN(Cc2ccc3c(c2)OCO3)CC1 | 1% | nt
O=C(Nc1cccc(Cl)c1)c1ccc(Cn2cc(Cl)cn2)cc1 | -12% | -8%
CCS(=O)(=O)N1Cc2ccccc2CC1C(=O)Nc1ccc(OC)cc1 (stereo unspecified) | -12% | i
O=C(c1cccc(C(F)(F)F)c1)C1CCCN(C(=O)/C=C/c2cnc[nH]2)C1 (stereo unspecified) | -5% | i
O=C(C[C@H]1C/C=C\C[C@H](NC(=O)OCC2c3ccccc3-c3ccccc32)C(=O)OC[C@H]2CCCN2C1=O)NCCO | -6% | -15%
NS(=O)(=O)c1ccc(N/N=C/c2ccccc2C(=O)O)c([N+](=O)[O-])c1 | -8% | 6%
COc1cc(Cl)c(C)cc1NC(=O)CCc1nc2cccnc2n1-c1ccccc1 | -11% | -15%
COc1ccc(-n2cnnc2SCC(=O)N2CCN(S(=O)(=O)c3ccccc3)CC2)cc1 | ? | nt
CC1=C(c2ccc(C)c(C)c2)S(=O)(=O)N(Cc2ccc(C(=O)NCc3cccc(C)c3)cc2)C1=O | -14% | -4%
O=C(O)CC/C(=N\NC(=O)c1ccccc1)c1cccs1 | -8% | -13%
N#Cc1ccccc1S(=O)(=O)N1CCN(CC(O)COc2ccccc2F)CC1 (stereo unspecified) | -16% | -14%
Fc1ccccc1/C=N/Nc1ncnc2nc[nH]c12 | ? | ?
Cc1ccc(S(=O)(=O)N[C@H](C(=O)OCC(=O)NC(=O)NCc2ccco2)C(C)C)cc1 | 2% | i
CC(=O)c1sccc1NC(=O)CC(C)(C)CC(=O)O | -13%[7.34 µM] | -8%[7.34 µM]
CCSc1nc(N)c(C#N)c(-c2ccco2)c1C#N | -17% | nt
CCOC(=O)c1cccc(NC(=O)c2cc3c(Cl)nc4ccc(C)cc4c3s2)c1 | -8% | -6%
Cc1ccc(CNc2nc3cc(-c4ccccc4)sc3c(=O)n2C)c(C)c1 | -28% | -10%
CC(C)CCNC(=O)c1ccc2c(c1)N(Cc1ccccc1F)C(=O)c1ccccc1S2=O (stereo unspecified) | -2% | -15%
CCCCC/C=C\C/C=C\CCCCCCCC(=O)O | -63%[3.33 µM] | -33%[3.33 µM]
O=C(N/N=C/c1cccnc1)c1ccc(O)cc1 | -8% | -1%
CCC(C)n1c(=O)c2sccc2n2c(CCCC(=O)Nc3ccc(F)cc3)nnc12 (stereo unspecified) | -11% | -8%
O=C(NCC(=O)N1CCC2(CC1)NCCc1[nH]cnc12)c1ccc2ccccc2c1 | 3% | i
O=C(Cc1ccccc1F)c1ccc(O)cc1O | 3% | 8%
Nc1nc(SCc2ccccc2)n[nH]1 | -13% | -13%
Cc1ccc2nc(CN(C)C(=O)[C@H]3O[C@@H](n4ccc(N)nc4=O)[C@H](O)[C@@H]3O)[nH]c2c1 | -4% | 7%
Cc1[nH]c(=O)[nH]c(=O)c1S(=O)(=O)N1CCC(C(=O)NC(C)c2ccccc2)CC1 (stereo unspecified) | -4% | -15%
Cc1cccc(N2CCN(C(=O)c3ccc(CS(=O)c4cccc(Cl)c4)o3)CC2)c1C (stereo unspecified) | -26% | -27%
CNc1nc(OC)nc(N(C#N)CN2C(=O)c3ccccc3S2(=O)=O)n1 | -11% | -7%
CN(CC(=O)Nc1ccccc1Cl)C(=O)COC(=O)c1ccccc1[N+](=O)[O-] | -7% | -11%
COCCNC(=O)C(c1ccc(Cl)cc1)N(Cc1ccco1)C(=O)CCC(=O)Nc1ccccn1 (stereo unspecified) | -9% | -11%
O=C(c1ccc2nc(Cc3ccccc3F)oc2c1)N1CCCC1 | -10% | -22%
CCN(c1ccccc1)S(=O)(=O)c1ccc(NC(=O)c2cc(=O)c3cc(C)ccc3o2)cc1 | -5% | 3%
CC(=O)NC(C)(c1ccccc1)c1nc(-c2cnc3ccccc3c2)cs1 (stereo unspecified) | -11% | 21%
Cc1cc(OCC(F)(F)C(F)(F)C(F)(F)C(F)F)nc(N)n1 | -6% | -17%
CCOC(=O)c1cnc2c(-c3ccc(Cl)cc3)c(C)nn2c1N | -10% | i
CCC(C)NC(=O)C1CCN(S(=O)(=O)c2ccc(Br)s2)CC1 (stereo unspecified) | -7% | -22%
O=C(O)COc1ccc(C=C2SC(=S)N(c3ccccc3)C2=O)cc1 | -10% | -8%
COc1ccc(-c2noc(N3CCC(C(=O)Nc4cc(OC)ccc4OC)CC3)n2)cc1 | ? | -25%

# The last 2 compounds of the part above are carried over, then new ones follow:
SMILES | Vaccinia Venus | Vaccinia mCherry
O=C(O)COc1ccc(C=C2SC(=S)N(c3ccccc3)C2=O)cc1 | -10% | -8%
COc1ccc(-c2noc(N3CCC(C(=O)Nc4cc(OC)ccc4OC)CC3)n2)cc1 | ? | -25%
CCc1nnc(NC(=O)CSc2nc3c([nH]c4ccccc43)c(=O)n2-c2ccc(C)cc2)s1 | -16% | -25%
CCn1c(-c2ccccc2F)nc2cc(NC(C)=O)cc(C(=O)N(C)Cc3cn(C)nc3C)c21 | -7% | 2%
COc1ccc(C2C(C(=O)O)CC(=O)N2c2ccc(OC)cc2)cc1 (stereo unspecified) | -12% | -10%
Cc1ccnc(NC(=S)NC(=O)c2cncc(Br)c2)c1 | -1% | -12%
COc1cccc(C(=O)Oc2c(Br)cc(Br)cc2/C=N/NC(=O)c2cc(C)[nH]n2)c1 | ? | ?
COc1ccccc1NC(=O)CCn1cnc2onc(-c3ccc(F)cc3)c2c1=O | ? | ?
CC1CCCN(C(=O)COC(=O)CSc2ccc(C(N)=O)cc2[N+](=O)[O-])C1 (stereo unspecified) | -8% | -17%
CCOC(=O)c1c(-c2ccc(OC)cc2)csc1/N=C/N(C)C | -9% | -16%
CC(C)N(C(=O)Cn1c(SCC(=O)NCc2ccc3c(c2)OCO3)nc2ccccc21)C(C)C | -9% | -22%
O=C(c1ccc(S(=O)(=O)N2CCCCC2)cc1)N1CCN(Cc2ccc3c(c2)OCO3)CC1 | -17% | i
CCNC(=O)NC(=O)C(C)OC(=O)c1cccn1C (stereo unspecified) | -5% | i
CCC(CC)CN1C(N(C)C)=NC[C@@H]1CC(C)C | -11% | i
COc1ccc(C(CNC(=O)COc2cc(C)c(Cl)c(C)c2)N2CCCCC2)cc1 (stereo unspecified) | -19% | -13%
CCC(=O)N(Cc1ccc2c(c1)OCO2)Cc1cc2cc(OC)ccc2[nH]c1=O | -10% | nt
O=c1[nH]c(CN2CCCCC2)ccc1O | -4% | i
COc1ccc(N2CCN(C(=O)CSc3ccc([N+](=O)[O-])cc3)CC2)cc1 | -23% | -21%
Cc1cccc(N2CCN(C(=O)c3ccccc3SCC(=O)N3CCCC3)CC2)c1C | ? | ?
CCOc1ncccc1C(=O)OCC(=O)Nc1ccc(C(C)C)cc1 | -6% | i
CN(C)c1ccc(CNC(=O)c2cccn2-c2nnc(N3CCCCC3)s2)cc1 | -5% | -18%
Cc1ccc(C(=O)N/C(=C\c2ccco2)C(=O)NCCCn2ccnc2)cc1C | -4% | i
COc1ccc(Cc2c(C(C)(C)C)nc3c(C)cc(Br)cn23)c(C)c1 | -1% | i
CCC(Sc1nc2ncccc2[nH]1)C(=O)NCCc1ccccc1 (stereo unspecified) | 1% | -12%
O=[N+]([O-])c1ccc(N2CCCCC2)nc1N1CCCCC1 | 2% | -8%
Cc1cc(C)c(NC(=O)CCCN2CCCC2)c(C)c1 | 9% | i
Cc1ccc(S(=O)(=O)N(C)c2ccc(OC(=O)c3cccs3)cc2)cc1 | -9% | i
O=C(CNCc1ccccc1)Nc1cccc(Cl)c1Cl | -18% | i
O=C(Cn1c(C(F)(F)F)nc2ccccc21)NCCN1CCCC1 | 0% | i
O=S(=O)(c1cccc2nsnc12)N1CCN(C/C=C\c2ccccc2)CC1 | -15% | -5%
Cc1cc(NC(=O)CSc2nc3c([nH]c4ccccc43)c(=O)n2-c2cccc(C(F)(F)F)c2)no1 | ? | nt
COc1ccc(NC(=O)CCc2c(C)nn(-c3ccc(N4CCCCC4)nn3)c2C)cc1Cl | -3% | 6%

# Exported with values under each structure: entries from further up.
# Second line of a record: Vaccinia Venus	Vaccinia mCherry
- CC(C)N(C(=O)Cn1c(SCC(=O)NCc2ccc3c(c2)OCO3)nc2ccccc21)C(C)C
  -9%	-22%
- O=C(c1ccc(S(=O)(=O)N2CCCCC2)cc1)N1CCN(Cc2ccc3c(c2)OCO3)CC1
  -17%	i
- CCNC(=O)NC(=O)C(C)OC(=O)c1cccn1C (stereo unspecified)
  -5%	i

# Record cards, from the list above. Order of values: Vaccinia Venus	Vaccinia mCherry
# Shown for COc1ccc(N2CCN(C(=O)CSc3ccc([N+](=O)[O-])cc3)CC2)cc1 → -23%	-21%
# Shown for CCNC(=O)NC(=O)C(C)OC(=O)c1cccn1C (stereo unspecified) → -5%	i
# Shown for COc1ccc(Cc2c(C(C)(C)C)nc3c(C)cc(Br)cn23)c(C)c1 → -1%	i
# Shown for COc1ccccc1NC(=O)CCn1cnc2onc(-c3ccc(F)cc3)c2c1=O → ?	?
# Shown for CCOC(=O)c1c(-c2ccc(OC)cc2)csc1/N=C/N(C)C → -9%	-16%

# The listing continues.
SMILES | Vaccinia Venus | Vaccinia mCherry
Cc1ccc(/C=C/c2onc(C)c2S(=O)(=O)N2CCC(C(=O)Nc3cccc(C#N)c3)CC2)cc1 | ? | -22%
CCc1ccc(-n2c(=O)c3cccnc3n2CC(=O)Nc2ccccc2C(F)(F)F)cc1 | -9%[7.34 µM] | -15%[7.34 µM]
C/C(CCc1ccccc1)=N\NC(=O)c1ccccc1 | -4% | -2%
CCN1CCN(C(=O)c2cc(S(=O)(=O)Nc3ccc(S(C)(=O)=O)cc3)ccc2Cl)CC1 | -11% | -12%
Cc1ncc(CN2CCN(C(C)C)C(CCO)C2)s1 (stereo unspecified) | -16% | ?
COCCN1Cc2cccc(C(=O)Nc3cc(OC)ccc3OC)c2C1=O | -17% | -22%
CC(C)C(=O)OCC(=O)Nc1ccc2c(c1)CCC2 | -12% | i
CCn1cc(C=C2C(=O)c3ccccc3C2=O)c2ccccc21 | 0% | -6%
CC(=O)N1CCN(Cc2ccc(Cl)nc2)CC1 | -10% | i
CCOc1ccc(NC(=O)C(=O)NCCc2ccccc2)cc1 | -3% | -12%
COC(=O)C(Nc1ccccc1Cl)(c1cc(C)c(O)c(C)c1)C(F)(F)F (stereo unspecified) | ? | nt
C=CCOc1ccc(C2NC(=S)NC3=C2CCc2ccccc23)cc1 (stereo unspecified) | -7% | ?
Cc1ccc(-c2nc3c(Cl)cc(C(F)(F)F)cn3c2Cc2cccc(F)c2)cc1 | 8% | 18%
CC(=O)Nc1nonc1-c1nc2ccccc2n1Cc1ccccc1Br | -18% | -24%
Cc1ccc(CC(=O)N(C)CC(=O)Nc2ccc(N3CCOCC3)cc2)cc1C | -19% | -5%
C[C@@H]1[C@H](c2ccccc2)Oc2ccc(Cl)cc2S(=O)(=O)N1CC1CCCN1C(=O)OC(C)(C)C (stereo partly specified) | -6% | -14%

# The order is random; overall some 0.82% were active at least once.
